MARV entry inh – qHTS for inhibitors of binding or entry into cells for Marburg Virus. Marburg virus pseudotyped entry inhibition, cell reporter; control for the full effect not named in the record; about a third of the inactives were read at about 46 µM. Potency, µM (series often up to 37.8 µM), inactives show at the top dose activity change, negative = inhibition, actives largely listed as inhibitors. actives 1.8% (n = 300,000); active = well fitted inhibition curve with a large enough effect; inconclusive = small, poorly fitted or top-dose-only effect, or effect the other way; inactive = flat fitted curve, though single readings scatter; tested in HEK293 cells; about a fifth of its hits are not listed in these tables; note: % is set by controls: 0 for no effect and ±100 for the full control effect; luciferase read-out
Cruzain inh noDet – qHTS Assay for Promiscuous and Specific Inhibitors of Cruzain (without detergent) | purified cruzain, Z-FR-AMC fluorescence, no detergent | AID 1476, 2009 | Potency, µM, for the others: max response, negative = inhibition, most hits filed as inhibitors | Cruzipain (Trypanosoma cruzi), P25779 | actives 2.3% (n = 200,000);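 note: plate controls were enzyme without inhibitor for no effect and buffer without enzyme for full effect; nearly all actives have a fitted effect of over 40% in size; top concentration of the series not given in the record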
Target sequence (P25779 123-467 limits assumed): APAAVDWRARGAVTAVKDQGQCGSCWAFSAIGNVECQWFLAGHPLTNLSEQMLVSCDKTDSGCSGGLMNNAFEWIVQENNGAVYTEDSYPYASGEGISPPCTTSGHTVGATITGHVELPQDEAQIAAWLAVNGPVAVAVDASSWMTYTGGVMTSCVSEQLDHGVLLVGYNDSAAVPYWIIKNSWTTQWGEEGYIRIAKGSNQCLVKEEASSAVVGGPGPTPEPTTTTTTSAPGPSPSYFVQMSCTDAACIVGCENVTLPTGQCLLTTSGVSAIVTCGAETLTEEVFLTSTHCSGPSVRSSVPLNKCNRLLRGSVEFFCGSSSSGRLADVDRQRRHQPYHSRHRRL
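Purified cruzain at 1.5 nM, pre-incubated 15 min with compound at room temperature in 100 mM sodium acetate pH 5.5, 5 mM DTT, 0.00005% Triton X-100. Reaction started with 2 uM Z-FR-AMC; AMC fluorescence increase over 60 s gives rate.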
RE007 growth inh – qHTS Assay for Inhibitors of the HIV-1 protein Vpr; actives 0.21% (n = 360,000); S. pombe RE007 Vpr strain, BacTiter-Glo ATP luminescence, 24 h; control for the full effect not named in the record; Potency, µM (highest dose often 92.2 µM), inactives show top-dose activity change, negative = less growth; active = well fitted falling curve with a large enough effect; inconclusive = small, poorly fitted or top-dose-only effect; inactive = no such curve, though single readings can be large or run the other way;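 note: % is set by controls: 0 for no effect and ±100 for the full control effect; nearly all actives have a fitted effect of over 50% in size; the assay follows cell death caused by Vpr and the record does not say whether a fall means rescue or toxicity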
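Fission yeast strain RE007, carrying one chromosomally integrated HIV-1 vpr copy, was seeded at OD 0.01 in PMG+AL medium with 23 nL pinned compound. After 24 h at 30 °C and 99% humidity, viability was read by BacTiter-Glo luminescence.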
NS1 function inh – qHTS Assay for Inhibitors of Influenza NS1 Protein Function; S. cerevisiae slowed by influenza A NS1, growth recovery by OD600; actives 0.4% (n = 270,000); Potency, µM (top dose mostly 46.1 µM), without a hit: top-dose activity, positive = more growth; active means well fitted rising curve with a large enough effect; inconclusive means small, poorly fitted or top-dose-only effect; inactive means no such curve, though single readings can be large or run the other way; note: nearly all actives have a fitted effect of over 50% in size
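A cell-based growth assay was used: compounds that relieve NS1-induced slow growth of budding yeast raise OD600. Assay medium was yeast nitrogen base with ammonium sulphate and -URA supplement, pH 6.0, with 2% galactose.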
2A StopGo – High Throughput Screening for Foot and Mouth Disease Virus Antivirals | human cells with a luciferase reporter of 2A StopGo recoding; control for the full effect not named in the record | actives 1.2% (n = 410,000) | Potency, µM (titrated, usually from 57.9 µM), inactives show at the top dose signal change, negative = less light | AID 1159524, 2015; active = well fitted falling curve with a large enough effect; inconclusive = small, poorly fitted or top-dose-only effect; inactive = no such curve, though single readings can be large or run the other way; tested in HEK293T cells; note: % is set by controls: 0 for no effect and ±100 for the full control effect; nearly all actives have a fitted effect of over 45% in size; luciferase light after 4 h
Lassa entry inh – qHTS for Inhibitors of binding or entry into cells for Lassa Virus | actives 1.2% (n = 300,000) | Potency, µM (top dose mostly 37.9 µM), for inactives: top-dose activity change, negative = inhibition, actives largely listed as inhibitors | Lassa virus pseudotype entry inhibition, cell reporter; control for the full effect not named in the record; active means well fitted inhibition curve with a large enough effect; inconclusive means small, poorly fitted or top-dose-only effect, or effect the other way; inactive means flat fitted curve, though single readings scatter; tested in HEK293 cells; note: % is set by controls: 0 for no effect and ±100 for the full control effect; nearly all actives have a fitted effect of over 50% in size; luciferase read-out
SARS PLP yeast – qHTS of Yeast-based Assay for SARS-CoV PLP; S. cerevisiae expressing SARS-CoV PLpro, growth rescue; control for the full effect not named in the record; Potency, µM (top dose mostly 32.9 µM), without a hit: at the highest dose activity, positive = growth rescue; actives 0.19% (n = 330,000); AID 485353, 2010; active means well fitted rising curve with a large enough effect; inconclusive means small, poorly fitted or top-dose-only effect; inactive means no such curve, though single readings can be large or run the other way; note: 0% is about no effect; nearly all actives have a fitted effect of over 55% in size; growth read by luminescence after 48 h
Cruzain inh Det – qHTS Assay for Promiscuous and Specific Inhibitors of Cruzain (with detergent) | purified cruzain, Z-FR-AMC fluorescence, 0.01% Triton | Potency, µM, inactives show max response, negative = inhibition, actives largely listed as inhibitors | actives 0.43% (n = 200,000) | AID 1478, 2009;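 note: plate controls were neutral wells for no effect and buffer without enzyme for full effect; nearly all actives have a fitted effect of over 40% in size; top concentration of the series not given in the record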
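Cysteine protease activity tested under reducing, mildly acidic conditions (100 mM sodium acetate pH 5.5, 5 mM DTT) plus 0.01% Triton X-100. Cruzain 1.5 nM; substrate Z-FR-AMC 2 uM; 15 min compound preincubation at room temperature.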
Numbers without * were called inactive; u = inconclusive; x = not tested or not shown; & = joins results of further samples; [ ] = another dose, or the depositor's remark. Unless noted, calls come from the whole dose curve; as a rule, active = well fitted curve in the direction sought with a large enough effect; inconclusive = small, poorly fitted or top-dose-only effect, or another doubt; inactive = no such curve, though single readings can be large; an effect the other way counts as inactive or inconclusive. Potency is the fitted concentration of half-maximal effect.

SMILES	MARV entry inh	Cruzain inh noDet	RE007 growth inh	NS1 function inh	2A StopGo	Lassa entry inh	SARS PLP yeast	Cruzain inh Det
Cc1ccc(C)c(OCCOCCn2c(-c3ccc(Br)cc3)nc3ccccc3c2=O)c1C	-2%[46.1 µM]	10%	x	x	-13%	2%[46.1 µM]	x	-0.7%
N#Cc1ccc(COC(=O)c2cnc3ccccc3n2)cc1	3%[46.1 µM]	x	2%	7%	0%	10%[46.1 µM]	-1%	x
CCOc1ccccc1CNCc1ccc(C(=O)O)cc1	u	x	20%	6%	-2%	-18%	1%	x
O=C(CSc1nnc2ccccn12)N1CCOCC1	24%	-2%	14%	11%	-6%	4%	0%	4.7%
Cc1ccc(CNS(=O)(=O)c2c(C(=O)N3CCCCC3)c(C)n(C)c2C)o1	9%[46.1 µM]	x	4%	7%	32%[activator]	34%[46.1 µM]	-5%	x
Cc1ccc(N(Cc2cc3ccc(C)cc3[nH]c2=O)C(=O)c2ccco2)c(C)c1	x	x	11%	2%	-26%	x	1%	x
C#CCSc1nsc(SCC#C)c1C#N	1%	-3%	4%	8%	x	-15%	12%	-5.4%
CCn1ncc([N+](=O)[O-])c1C(=O)Nc1cc(C)on1	u	6%	1%	21%	-16%	-9%	-7%	-1.0%
CC(C)(C)NC(=O)c1cc(NC(=O)c2ccco2)cc(NC(=O)c2ccco2)c1	u	18%	-13%	-10%	-13%	-9%	-5%	1.2%
COc1ccc(Cc2nnc(NC(=O)c3ccccc3F)s2)cc1OC	x	x	0%	-1%	-8%	x	-4%	x
Cc1noc(C)c1C(=O)N(C)CC(=O)Nc1ccc(F)c(F)c1F	15%	x	1%	x	-10%	26%	-1%	x
COc1ccc(CCNC(=O)CCc2nnc(Cc3ccc4c(c3)OCO4)o2)cc1	16%	x	-2%	-5%	-8%	u	-5%	x
COc1ccc(S(=O)(=O)N2CCn3c2nc2ccccc23)cc1	-14%	-3%	-23%	-1%	-18%	-7%	-9%	3.7%
COc1ccccc1NS(=O)(=O)c1cc(C(=O)NCC(c2cccs2)N2CCOCC2)ccc1C (stereo not given)	u	x	-18%	x	-12%	-2%	8%	x
N#Cc1cc2c(=O)n3ccccc3nc2n(-c2nnc(SCc3ccccc3Cl)s2)c1=O	-1%[46.1 µM]	5%	x	x	-9%	-2%[46.1 µM]	x	-1.8%
CCN1C(=O)C(CC(=O)Nc2ccc(OC)cc2)N(Cc2ccc(OC)c(OC)c2)C1=S (stereo not given)	0%	x	1%	0%	-25%	14%	0%	x
Cc1ccc(S(=O)(=O)N2CCCCC2)cc1C(=O)Nc1ccccn1	9%	x	0%	5%	-9%	-9%	11%	x
COc1cccc(C(=O)NCCN2CCN(c3ccccc3)CC2)c1	x	x	3%	10%	-7%	x	1%	x
O=C(CCn1nnc2ccccc21)OCC(=O)c1ccc(F)cc1	19%[46.1 µM]	x	-13%	-11%	-17%	6%	0%	x
CCOC(=O)CC(NS(=O)(=O)c1ccc2[nH]cc(C(=O)O)c(=O)c2c1)c1ccc(OCC)c(OC)c1 (stereo not given)	-8%[46.1 µM]	x	-8%	-10%	-5%	-3%	-3%	x
CCCCCC(=O)Nc1nc(C)c(-c2csc(Nc3cc(Cl)ccc3C)n2)s1	x	10µM*	-12%	28%	-10%	x	1%	-2.8%
C/C(=N\NC(=O)c1ccc(-c2ccccc2)cc1)c1ccco1	-3%[46.1 µM]	x	0%	-12%	43%[activator]	12%	-4%	x
CCCNC(=O)N1CCC(c2ccc3c(c2)OCO3)CC1	x	x	51%	-12%	1%	x	-10%	x
O=c1[nH][nH]c(-c2ccccc2)c1C=Nc1cccc(Cl)c1	-1%	-3%	6%	8%	-9%	-5%	-2%	-2.9%
N#C/C(=C(/O)COC(=O)c1ccc2c(c1)OCCO2)c1nc2ccccc2[nH]1	-6%	-15%	10%	-8%	29%	u	0%	-2.5%
Fc1ccc(-n2cc(CNCCc3cccnc3)c(-c3ccccc3Cl)n2)cc1	u	x	-6%	4%	-18%	u	-2%	x
COc1ccc([N+](=O)[O-])cc1Nc1ncnc2ccccc12	-5%	x	-5%	-1%	-16%	-1%	0%	x
O=c1nc(N2CCOCC2)nc2n1CCO2	7%[46.1 µM]	1%	9%	-1%	-5%	9%	-1%	4.8%
COc1cccc(CNC(=O)CCc2c(C)nc3c4c(C)cc(C)nc4nn3c2C)c1	0%[46.1 µM]	10%	x	x	-12%	-9%[46.1 µM]	x	-2.0%
COc1ccccc1N(CC(=O)NCc1ccccc1C)S(=O)(=O)c1ccc(C)cc1	u	x	12%	-8%	2%	-28%[46.1 µM]	0%	x
CCCCN(CC)C(=O)c1nn(-c2ccc(OC)cc2)c(=O)c2c1c1ccccc1n2C	-28%[46.1 µM]	2%	x	x	u	-12%[46.1 µM]	x	-9.0%
O=C(COC(=O)[C@@H]1CCCN1C(=O)c1cccs1)Nc1cccc([N+](=O)[O-])c1	-9%[46.1 µM]	x	8%	x	-13%	24%[46.1 µM]	-2%	x
O=C(NC1CC(=O)c2sccc21)c1cccc(C(F)(F)F)c1 (stereo not given)	19%[46.1 µM]	x	20%	7%	0%	14%	1%	x
NC(=O)C1=C[C@@H](c2ccccc2)C[C@@H](OCc2ccc(CO)cc2)O1	x	x	-6%	-1%	-18%	x	-2%	x
O=C(N/N=C/c1cccs1)/C(=C/c1ccccc1)NC(=O)c1ccccc1	2%	2%	4%	18%	5%	-6%	9%	-5.2%
CC(=O)c1ccc(N(C(=O)Cn2nnc3ccccc32)C(C(=O)NC2CCCCC2)c2cn(C)nc2C)cc1 (stereo not given)	5%&5%	u	7%	5%	-18%	-17%	4%	-1.4%
CCCOc1ccc(CNC(=S)Nc2ccccc2)cc1Cl	u	x	-11%	-52%	-5%	-9%[46.1 µM]	-2%	x
O=C1CCC(C(=O)NCc2ccccc2)N1 (stereo not given)	u	x	18%	3%	-4%	2%[46.1 µM]	1%	x
Cc1ccccc1C(=O)NCC(=O)OCCCOC(=O)CNC(=O)c1ccccc1C	2%[46.1 µM]	x	-7%	x	-23%	13%	-3%	x
CC(C)(C)NS(=O)(=O)c1ccc2c(c1)oc(=O)c1cc(S(=O)(=O)NC(C)(C)C)ccc12	u	2%	-3%	5%	-7%	-6%	-4%	-7.8%
Cc1cc(O)c(C(c2ccc(Cl)cc2)N2CCN(c3ccccc3)CC2)c(=O)n1Cc1ccco1 (stereo not given)	x	u	x	x	-4%	0%[46.1 µM]	x	1.1%
O=C(COC(=O)/C=C/c1cccc(F)c1)NC1CCCC1	u	x	-1%	x	-15%	2%	6%	x
CC(=O)c1cccc(NC(=O)N2CCOCC2)c1	-28%[46.1 µM]	x	9%	-5%	-5%	-9%[46.1 µM]	4%	x
CC(=O)NC(NC(=S)Nc1cccc(Br)c1)C(Cl)(Cl)Cl (stereo not given)	-18%[46.1 µM]	x	10%	-6%	-8%	9%	0%	x
CCOC(=O)C1CCN(C(=O)Cn2ncc3c4ccccc4n(Cc4ccccc4)c3c2=O)CC1	1%[46.1 µM]	u	x	x	-27%	-26%[46.1 µM]	x	-9.9%
COc1cccc(NC(=O)CCc2nnc3ccc(N4CCC(C)CC4)nn23)c1	-6%[46.1 µM]	x	-4%	5%	-10%	23%[46.1 µM]	0%	x
CC(C)CC(=O)Nc1cccc(-c2csc(-c3ccccc3)n2)c1	11%	-6%	-4%	-10%	1%	-25%	-17%	1.2%
Cn1nnnc1SCC(=O)Nc1ccccc1C(=O)NC1CC1	-2%	11%	0%	0%	-11%	0%	3%	1.9%
CCCCNS(=O)(=O)C1CCS(=O)(=O)C1 (stereo not given)	0%	-4%	-3%	6%	-13%	2%	2%	1.8%
C=CCn1c(-c2c(C)nc3cc(C)ccn23)n[nH]c1=S	7%	0%	-5%	15%	-4%	-1%	-1%	1.2%
Cc1ccc(CN(Cc2cc3cc(C)ccc3[nH]c2=O)C(=O)N2CCOCC2)cc1	-29%	12%	9%	-8%	0%	-2%	-3%	3.1%
O=C(COC(=O)c1cccc(S(=O)(=O)NCc2ccccc2)c1)c1ccc2c(c1)OCCO2	u	0%	-7%	u	12%	u	-34%	-6.0%
N#CCC(=O)N/N=C/c1cn(Cc2cccc3ccccc23)c2ccccc12	x	x	5%	0%	u	x	0%	x
O=C(Nc1ccc(Cl)c(S(=O)(=O)N2CCCCC2)c1)C1=COCCO1	10%	x	4%	x	-16%	u	-17%	x
CC(C)Oc1ccc(Br)cc1C(=O)N/N=C/c1c[nH]c2ccccc12	u	x	-8%	-1%	-9%	-13%[46.1 µM]	-4%	x
CC1Cc2ccccc2N1C(=O)CSc1nc(-c2ccccc2)cs1 (stereo not given)	x	6%	-7%	18%	15%	x	-1%	0.2%
CC(=O)Nc1ccc(S(=O)(=O)N2CCN(c3ccc(C)c(C)c3)CC2)cc1	10%[46.1 µM]	u	x	x	-24%	3%[46.1 µM]	x	0.8%
COc1ccc(/C=C/C(=O)Nc2sc3c(c2C(N)=O)CCC(C)C3)cc1OC (stereo not given)	13%[46.1 µM]	10%	x	x	6%	-23%[46.1 µM]	x	-2.2%
CCOC(=O)C1CCN(C(=O)c2ccccc2NS(=O)(=O)c2ccccc2)CC1	-11%	x	-6%	19%	20%	-2%	4%	x
CCCCCCCCOC(=O)c1c(CSC(=N)N)n(C)c2cc(Br)c(OC(C)=O)cc12	x	x	u	8%	u	x	-4%	x
Cc1cc(=O)c2c(C)ccc(C)c2[nH]1	x	x	3%	8%	-15%	x	0%	x
Cc1ccc(CNc2ccc(N3CCOCC3)c(C(=O)O)c2)s1	-3%	2%	-9%	-2%	15%	5%	2%	0.3%
